Screens (PubChem)
PINK1 modulator – modulators of PINK1 expression; PINK1 immunofluorescence, high-content cytometry, 24 h; Potency, µM (top dose mostly 76.6 µM), inactives show at the top dose activation (PINK1 increase), usual class: activators; hit rate 0.2% among 410,000; AID 624263; active = well fitted activation curve with a large enough effect; inconclusive = small, poorly fitted or top-dose-only effect; inactive = flat fitted curve, though single readings scatter; cell line not stated here;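 further: potency means the concentration at half of the fitted maximal effect; % of control where 0% means no effect; nearly all actives have a fitted effect of over 65% in size; a mitochondrial uncoupler was the plate control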
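Decision-based qHTS: stable cells, 24 h exposure to five compound concentrations, CCCP as control. Fixed cells stained for PINK1 plus nuclear, mitochondrial and cell markers, cytometer read.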
TRPML1 ag – human mucolipin-1 channel agonism | TRPML1-expressing cells, Ca2+ dye fluorescence, FDSS; host cell line not named in the record; reference of the full effect not given here | Q9GZU1 | hit rate 0.12% among 410,000 | activation, % (concentration not given with the values); in the data active = activation above about 50%; inconclusive = about 30% to 50%; inactive = below about 30%; further: 0% is about no effect; the text of the record puts the active cut at 80%
Target sequence (Q9GZU1 whole entry, looked up): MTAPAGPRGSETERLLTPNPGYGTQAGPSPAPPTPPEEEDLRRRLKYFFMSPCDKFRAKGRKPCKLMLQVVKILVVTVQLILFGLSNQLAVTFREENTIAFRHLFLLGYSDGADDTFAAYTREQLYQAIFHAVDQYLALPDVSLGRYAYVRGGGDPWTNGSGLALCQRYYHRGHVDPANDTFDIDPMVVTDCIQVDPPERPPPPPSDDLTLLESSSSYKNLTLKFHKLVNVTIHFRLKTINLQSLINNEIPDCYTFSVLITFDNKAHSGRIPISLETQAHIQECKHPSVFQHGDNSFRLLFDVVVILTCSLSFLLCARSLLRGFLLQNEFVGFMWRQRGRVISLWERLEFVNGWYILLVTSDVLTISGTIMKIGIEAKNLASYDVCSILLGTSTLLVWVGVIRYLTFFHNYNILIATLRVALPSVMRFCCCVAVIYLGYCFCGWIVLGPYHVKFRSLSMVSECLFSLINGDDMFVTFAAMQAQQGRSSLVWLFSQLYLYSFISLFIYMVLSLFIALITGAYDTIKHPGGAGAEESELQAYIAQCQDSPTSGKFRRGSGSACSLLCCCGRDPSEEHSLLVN
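TRPML1-DL cells, Tet-induced overnight (~16 h, 37 degrees C), loaded 45-90 min at room temperature with Ca8 no-wash calcium dye plus quencher. FDSS fluorescence: 10 s baseline, compound pin-transfer, 110 s agonist read, then EC80 54-4 (4uM final) and 110 s antagonist read.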
* hit, by the source's call. Some of the compounds tested. The share of hits here may be higher or lower than overall.

Compound	PINK1 modulator	TRPML1 ag
CCOc1ccccc1C(=O)N1CCN(CCc2ccccn2)CC1	4.5%	-0.2
COc1ccccc1C(=O)Nc1cccc(C(=O)OCc2cc(=O)n3nc(C4CC4)sc3n2)c1	0.1%	-1.2
COc1ccccc1NC(=O)N(Cc1ccco1)C1CCN(C(C)=O)CC1	0.5%	-0.2
COc1ccc(-c2cc(C(F)(F)F)n3nc(C(=O)Nc4cc(Cl)cc(Cl)c4)cc3n2)cc1	-0.3%	-0.5
CC(C)COc1ccc(-c2nonc2NC(=O)c2ccc(F)cc2)cc1	-1.1%	1.3
COc1ccc(CNc2nc3c(S(=O)(=O)c4ccccc4)nnn3c3ccc(Cl)cc23)cc1	-0.8%	0.5
CN(CC(=O)Nc1ccc(F)cc1F)S(=O)(=O)c1ccc(C(=O)N2CCOCC2)s1	1.2%	-0.3
COc1ccc(-c2nc(CN3CCC(C(=O)NCCCN4CCN(c5ccccc5F)CC4)CC3)c(C)o2)cc1OC	0.3%	-0.7
CCOc1ccc(CCNC(=O)C2=C(C)C(=O)OC23CCCCC3)cc1	-0.3%	-0.5
CCC(C)c1ccc(OCC(=O)Nc2cccc(-c3nc4ncccc4o3)c2)cc1 (stereo not drawn)	0.7%	1.3
COC(=O)c1ccccc1NC(=O)CN1C(=O)COc2ccc(Cl)cc21	-1.0%	-0.3
O=C(COc1ccc(F)cc1)Nc1ccc2nc(SCC(=O)N3CCCC3)sc2c1	-0.2%	3.8

Going on with the list.
Compound	PINK1 modulator	TRPML1 ag
Cc1nnc(SCC(=O)NCc2cccc(F)c2)c2nn(-c3ccccc3)c(C)c12	7.1%	0.3
CC(=O)c1cc2c(cc1NC(=O)c1c(C)nn(-c3ccc(C)cc3)c1-n1cccc1)OCO2	1.5%	0.0
Cc1ccccc1NCc1cccn1-c1nnc(N2CCC(C)CC2)s1	-1.7%	2.1
Cc1cccc(N2CCN(C(=O)c3ccc4c(c3)N(Cc3cccc(Cl)c3)C(=O)c3ccccc3S4(=O)=O)CC2)c1C	2.1%	0.2
CCc1ccccc1N1C(=O)N(Cc2cc(=O)n3ccccc3n2)c2ccccc2S1(=O)=O	-0.6%	-0.3
COc1ccc(CC(=O)Nc2nnc3n2CCS3)cc1OC	-5.3%	2.2
O=C(NCCc1ccccc1)c1ccc2c(c1)N(Cc1ccccc1)C(=O)c1ccccc1S2=O (stereo not drawn)	1.0%	3.8
Cc1cccc(C)c1-n1ncc(C(=O)NCCN2CCOCC2)c1C1CCN(C(=O)OC(C)(C)C)CC1	2.0%	7.3
CC(=O)Nc1nonc1-c1nnc(SCC(=O)Nc2ccc(F)cc2F)n1-c1ccccc1	-0.8%	-1.0
CCN1CCN(c2ncc3c(n2)CC(c2ccccc2O)CC3=O)CC1 (stereo not drawn)	8.5%	-0.2
Cc1ccc(S(=O)(=O)C(CNC(=O)C(=O)NCCc2ccc(Cl)cc2)c2ccco2)cc1 (stereo not drawn)	2.5%	2.4
COc1cccc(CNC(=O)CCc2nnc3n(CC(C)C)c(=O)c4ccccc4n23)c1	-0.6%	0.2

More records:
Compound	PINK1 modulator	TRPML1 ag
O=c1cc(-c2ccc(F)cc2)nc(SCc2nc(-c3ccccc3Cl)no2)[nH]1	0.1%	0.9
Cc1cccc(NC(=O)NC2COc3ccccc3C2)c1C (stereo not drawn)	1.1%	-0.2
CCOC(=O)c1c(C)[nH]c(C)c1S(=O)(=O)N1CCC(C(=O)N2CCN(c3ccccc3)CC2)CC1	0.1%	-0.9
COc1ccc(C2=CC(c3cc(Br)ccc3F)n3c(nc4ccccc43)N2)cc1 (stereo not drawn)	2.9%	7.2
COc1ccc(CNC(=O)C(=O)NCC(c2ccco2)S(=O)(=O)c2ccc(C)cc2)cc1 (stereo not drawn)	5.0%	0.8
CC(=O)NCCNc1nc2c(-c3cccc(C)c3)nnn2c2ccc(Cl)cc12	1.3%	-0.8
O=C(Cc1ccc(Br)cc1)NO	2.9%	-0.7
CCc1ccc(-c2nn(CC(=O)NCc3ccccc3)c3c2cnc2ccc(F)cc23)cc1	4.2%	0.2
COc1ccc(N2CC(NC(=O)c3ccc(S(=O)(=O)N4CCCCC4)cc3)CC2=O)cc1OC (stereo not drawn)	2.7%	0.8
O=C(CCn1c(=O)c2cccn2c2cccnc21)NCc1ccccc1Cl	2.2%	-0.1
CCn1ccc2cc(S(=O)(=O)N3CCC(C(=O)NCCc4ccc(SC)cc4)CC3)ccc21	5.2%	2.8
Cc1cccc(NC(=O)c2ccc(F)c(S(=O)(=O)N3CCN(c4ccc(F)cc4)CC3)c2)c1	0.9%	1.2

A draw from above in order of number of heavy atoms, smallest number first:
Compound	PINK1 modulator	TRPML1 ag
O=C(Cc1ccc(Br)cc1)NO	2.9%	-0.7
O=c1cc(-c2ccc(F)cc2)nc(SCc2nc(-c3ccccc3Cl)no2)[nH]1	0.1%	0.9
COc1ccc(C2=CC(c3cc(Br)ccc3F)n3c(nc4ccccc43)N2)cc1 (stereo not drawn)	2.9%	7.2
Cc1cccc(NC(=O)c2ccc(F)c(S(=O)(=O)N3CCN(c4ccc(F)cc4)CC3)c2)c1	0.9%	1.2
CCOC(=O)c1c(C)[nH]c(C)c1S(=O)(=O)N1CCC(C(=O)N2CCN(c3ccccc3)CC2)CC1	0.1%	-0.9

(next part)
Compound	PINK1 modulator	TRPML1 ag
COc1cc2oc(=O)c(CC(=O)NCc3ccc(OC)c(OC)c3)c(C)c2cc1Cl	0.6%	-0.1
CCOC(=O)c1[nH]c2ccccc2c1NC(=O)c1ccccc1OCC	-1.3%	1.0
COc1ccccc1N1CCN(C(=O)Cn2ncc3c2-c2cc(C)ccc2OC3)CC1	1.2%	0.8
Cc1c2cnn(CC(=O)N3CCN(c4ccc(F)cc4)CC3)c(=O)c2c(C)n1Cc1ccccc1F	1.2%	0.3
COc1ccccc1C(=O)Nc1nc2n(n1)C(c1ccc(F)cc1)C=C(c1ccc(Cl)cc1)N2 (stereo not drawn)	-1.7%	7.4
CSc1ccc(C2c3[nH]c4ccccc4c3CCN2C(=O)CCc2ccccc2)cc1 (stereo not drawn)	0.4%	-0.5
CC(C)c1ccc(C2CC(=O)Nc3cc4c(cc32)OCCO4)cc1 (stereo not drawn)	2.2%	3.7
Cc1ccc(-n2nc(C(=O)Nc3ccc(Cl)cn3)c3c4ccccc4n(C)c3c2=O)cc1	-0.2%	0.1
Cc1ccc(NC(=O)c2oc3ccc(S(=O)(=O)N(C)C4CCCCC4)cc3c2C)c(C)c1	1.7%	1.2
Cc1ccc(CC(=O)Nc2c(C(=O)N3CCN(c4ccccc4)CC3)oc3ccccc23)cc1	0.4%	-0.1
Cc1cccc(-n2c(N)cc(=O)nc2SCC(=O)Nc2ccc(F)cc2)c1C	1.4%	-0.4
COc1cc(Cl)c(NC(=O)c2cc(S(=O)(=O)N3CCCCC3)c[nH]2)c(OC)c1	1.4%	1.7

(cont.)
Each structure is followed by: PINK1 modulator | TRPML1 ag
CSc1ccc(CCNC(=O)c2cc3cc(S(=O)(=O)N4CCCCC4)ccc3n2C)cc1
→ 1.3% | 2.0
CC(C)CCNc1ncnc2c1cnn2-c1cccc(Cl)c1
→ 13.0% | 0.1
COc1ccccc1C(=O)Nc1ccc(C(=O)OCc2cc(=O)n3nc(C4CC4)sc3n2)cc1
→ 8.0% | -0.6
CCN(CC)S(=O)(=O)c1ccc2c(c1)c(=O)c(C(=O)N1CCN(c3cccc(C)c3)C(C)C1)cn2C (stereo not drawn)
→ 0.5% | -1.0
COc1cc(OC)cc(C(=O)Nc2ccc(S(=O)(=O)Nc3cc(C)nc(C)n3)cc2)c1
→ 0.6% | 4.4
O=C(c1ccc(CS(=O)(=O)c2c(Cl)cccc2Cl)o1)N1CCN(c2ccccc2)CC1
→ 0.6% | 2.6
COCCNC(=O)c1c(C)oc2nc(C)nc(N3CCOCC3)c12
→ 10.4% | 2.0
Nc1nc(Nc2cccc(Cl)c2)sc1C(=O)c1ccc(F)cc1
→ 0.3% | 3.2
CCCOc1ccc(C(=O)N(Cc2ccc(Cl)cc2)Cc2ccco2)cc1
→ 0.7% | 3.2
COc1ccccc1CNC(=O)c1ccc2c(c1)N(Cc1cccc(Cl)c1)C(=O)c1ccccc1S2(=O)=O
→ 1.4% | 1.9

Continued:
Each structure is followed by: PINK1 modulator | TRPML1 ag
Cc1c(-c2cccc(NC(=O)Nc3ccc(Cl)cc3)c2)nc2ncccn12
→ 0.8% | 1.1
CCOc1ccc(NC(=O)Cn2c(=O)n(CC3CCC(C(=O)NCCc4ccccc4)CC3)c(=O)c3ccccc32)cc1 (stereo not drawn)
→ -0.7% | 0.2
CN(C)c1ccc(C(CNS(=O)(=O)c2ccc(F)cc2)N2CCCC2)cc1 (stereo not drawn)
→ -1.2% | -0.4
O=C(O)c1ccc(CSc2nc3cccnc3n2Cc2cccc(F)c2)cc1
→ -1.5% | -0.3
COc1ccc(C2c3c(n(C)c4ccccc34)C(=O)N2CC(=O)Nc2ccccc2Cl)cc1 (stereo not drawn)
→ 1.5% | 0.4
CN(C)CCNC(=O)C1CCN(c2nc3ccccc3[nH]2)CC1
→ -1.0% | 1.0
COCCCNC(=O)c1ccc(-n2c(-c3ccccc3)cc3c2CCCC3)cc1
→ -0.2% | 0.7
O=S(=O)(Nc1c(Br)cc(Br)c2cccnc12)C1CCCCC1
→ -0.2% | 0.1
c1ccc(CSc2nnc(C3CCNCC3)o2)cc1
→ -0.9% | -0.5
CCN1CCc2c(sc(-n3cccc3)c2C(CCC(C)C)NC(=O)NCCC(=O)OC)C1 (stereo not drawn)
→ 1.2% | 1.2

More results
Each structure is followed by: PINK1 modulator | TRPML1 ag
CCc1ccccc1NC(=O)[C@H](Cc1ccccc1)N1Cc2ccccc2C1=O
→ 3.9% | 1.2
O=C1CC(c2nc(-c3ccccc3)no2)CN1c1ccc2c(c1)OCCO2 (stereo not drawn)
→ 1.1% | 0.9
Cc1oc(-c2ccc(Cl)cc2)nc1CS(=O)CC(=O)NCCc1ccccc1 (stereo not drawn)
→ -0.3% | 1.0
COc1ccc2c(c1)c(=O)c(C(=O)c1ccc(Cl)cc1)cn2CC(=O)Nc1ccc2c(c1)OCO2
→ 0.4% | -0.4
O=C(NCCCN1CCN(c2ccccc2)CC1)c1nnc(Cc2ccc(F)cc2)o1
→ 3.9% | 0.4
COC(=O)c1cc2sc(C)cc2n1Cc1nc(-c2ccc(C)cc2)oc1C
→ -0.8% | 1.5
Cc1ccc(S(=O)(=O)N2CCCc3cc(NC(=O)c4cccc(Cl)c4)ccc32)cc1
→ 1.3% | -0.7
N#Cc1cccc(NC(=O)C2CCN(c3nc(-c4ccc(Cl)cc4)no3)CC2)c1
→ 3.6% | -0.8
COc1ccc(/C=C/C(=O)N2CCC(c3nc4ccccc4o3)CC2)cc1
→ 0.0% | 2.2
Cc1cccc(CNC(=O)C2CCN(c3nn4cc(-c5ccc(F)cc5)nc4s3)CC2)c1
→ -1.0% | 0.6

Additional compounds
Each structure is followed by: PINK1 modulator | TRPML1 ag
CN(C)c1ccc(NC(=O)C2(c3cccs3)CCOCC2)cc1
→ 0.3% | -0.2
CCN(CC)c1nn2c(=O)c(C(=O)NCc3ccccc3Br)cnc2s1
→ 0.1% | 0.6
N#Cc1nc(N)nc(N2CCCCC2)n1
→ 1.1% | -0.5
COc1ccc2c(c1)sc1ncc(C(=O)NCc3cccc(Cl)c3)c(=O)n12
→ 0.2% | -0.8
C[n+]1ccc(/C=C/c2ccc3c(c2)OCO3)c2ccccc21
→ -0.4% | -0.5
CCOc1ccccc1NC(=O)Cn1c(=O)n(Cc2nc(C)no2)c(=O)c2ccccc21
→ -1.3% | -0.9
CCOc1ccc(CNC(=O)c2cnc3sc(N(CC)CC)nn3c2=O)cc1
→ 1.4% | 0.2
CCCOc1ccc(C(=O)Nc2cc(-c3nc4cc(C)cc(C)c4o3)ccc2C)cc1
→ 2.1% | 0.4
CCOc1ccc(Nc2cc(C)nc3nncn23)cc1
→ -1.1% | 1.2
COc1ccc(OC)c(NC(=O)C2=C(C)C(=O)OC23CCN(C(C)C)CC3)c1
→ -0.7% | -0.2

(cont.)
Each structure is followed by: PINK1 modulator | TRPML1 ag
CCOCCCNC(=O)C(c1ccc(C)cc1)N(Cc1ccc2c(c1)OCO2)C(=O)c1ccccc1O (stereo not drawn)
→ 0.4% | 1.0
COc1ccc(Cn2ccc3nc(C)c(C(=O)Nc4ccc(F)cc4)cc3c2=O)cc1
→ 3.8% | 3.1
COc1cc(NC(=O)c2cc3ccccn3n2)cc(OC)c1OC
→ -0.1% | -0.8
COc1ccccc1CNS(=O)(=O)c1c(C(=O)N2CCC(C)CC2)c(C)n(C)c1C
→ -0.9% | 1.3
COc1cc(C2c3c(-c4ccccc4O)n[nH]c3C(=O)N2Cc2ccncc2)ccc1O (stereo not drawn)
→ 1.7% | -0.3
CCc1ccc(-c2nn(CC(=O)NC3CCCCC3)c3c2cnc2ccc(F)cc23)cc1
→ -0.2% | -0.1

Compound profiles, from the list above. Order of values: PINK1 modulator, TRPML1 ag
Shown for COc1cc(C2c3c(-c4ccccc4O)n[nH]c3C(=O)N2Cc2ccncc2)ccc1O (stereo not drawn) → 1.7%, -0.3
Shown for O=C(COc1ccc(F)cc1)Nc1ccc2nc(SCC(=O)N3CCCC3)sc2c1 → -0.2%, 3.8
Shown for COc1cc(NC(=O)c2cc3ccccn3n2)cc(OC)c1OC → -0.1%, -0.8
Shown for Cc1cccc(CNC(=O)C2CCN(c3nn4cc(-c5ccc(F)cc5)nc4s3)CC2)c1 → -1.0%, 0.6
